# Assay outcomes (PubChem BioAssay)
# BJeLR lethal – MLPCN primary cell-based screen for lethality selective to Ras in HRASV12 cells; BJeLR (HRASV12) viability, CellTiter-Glo ATP luminescence, 48 h; reference of the scale not given here; inhibition, % (no concentration beside the values); hit rate 0.17% among 300,000;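 active = replicate mean above 50%; inconclusive = above 50% but judged a plate artefact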;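 also: 50 nL library stock added to about 25 µL; numbers are from one replicate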
# Sa ugtP lethal – growth inhibition of ugtP-null S. aureus, primary screen, RN4220 ugtP deletion, OD600; hit rate 0.54% among 330,000; growth inhibition, % (no concentration beside the values); 16 h; some inactives read as strong as hits;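 active = z-score under -3 and OD600 up to 0.15 on both plates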;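 also: plate controls were untreated wells for no effect and antibiotic for full effect; wells of about 80 µL received 100 nL stock; the first replicate is given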
# PrP 5UTR inh – inhibition of PrP 5' UTR reporter expression; cell-based PrP 5' UTR mRNA reporter, plate reader; inhibition, % (test concentration not listed); hit rate 0.35% among 340,000;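 active = every replicate at 50% or more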;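 also: 0 = median of the neutral control wells; tested in H4 reporter cells; numbers are from one replicate; inactives centre near -14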
# Bead autofluor – flagged as autofluorescent in microsphere protease counterscreen | compound autofluorescence counterscreen, microsphere flow cytometry; active compounds read high | fluorescence intensity (concentration not given with the values) | hit rate 3.1% among 360,000 | AID 624483;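 active = at least 3 SD above the mean of all compounds, about 16000 in these data; inconclusive = too few beads counted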;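 also: 100 nL of 1 mM stock went into each well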
# Mtb hypoxia rep – PubChem AID 1159583 | M. tuberculosis hypoxia-regulated fluorescent reporter, fluorescence | hit rate 0.1% among 300,000 | fluorescence inhibition, % (concentration not given with the values);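 active = 35 to 45% if threefold the growth effect, above 45% if 1.5-fold the growth effect; inactive = the rest, general growth blockers included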;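 also: wells of about 50 µL received 100 nL stock; 0% = vehicle wells and 100% = reference inhibitor wells; whole bacteria with a GFP reporter of the hypoxia response; strong numbers were not always called active; many hits fall short of the cut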
# RN4220 kill – growth inhibition of S. aureus RN4220, primary screen, OD600. hit rate 0.33% among 330,000. inhibition, % (test concentration not listed). 16 h;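 active = z-score of -3 or lower and OD600 up to 0.18 on both plates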;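 also: plate controls were untreated cells for no effect and reference antibiotic for full effect; stock transfer was 100 nL into about 80 µL; one replicate is shown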
# Mtb hypoxia rep growth – recorded beside Mtb hypoxia rep, whose call it bears; growth inhibition, %; measured here: M. tuberculosis growth (absorbance);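 0% = vehicle and 100% = reference antibiotic; read after six days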
# An asterisk follows results filed as active; ? = inconclusive; . = not tested or not shown.
# Every second line gives: BJeLR lethal	Sa ugtP lethal	PrP 5UTR inh	Bead autofluor	Mtb hypoxia rep	Mtb hypoxia rep growth	RN4220 kill
CN(C)S(=O)(=O)c1cccc(C(=O)NC2CCSc3ccccc32)c1 (stereo unspecified)
    -2.9	-10.0	-15.9	5333	-1.8	6.3	-4.6
C/C(=N\NC(=O)Cc1ccc(F)cc1)c1ccc(F)cc1
    2.4	.	1.2	2419	.	.	.
CCCCCCCN1C2=NCCN2c2ccccc21
    4.8	2.9	-2.8	4431	5.8	15.0	-1.1
COc1ccc(-c2[nH]ncc2CN(C)CCCN2CCOCC2)cc1F
    -9.4	7.5	-4.0	4297	12.8	7.5	8.5
CCc1cc(Br)ccc1NC(=O)C1CCCO1 (stereo unspecified)
    0.7	-2.3	25.8	10930	2.0	6.0	1.8
Cc1ccc(NCCCCO)cc1C
    6.9	2.4	-23.7	4767	0.0	2.0	4.3
COc1ccc(C2CCCN2C(=S)Nc2c(C)cccc2C)cc1OC (stereo unspecified)
    -1.7	6.1	-5.2	4523	12.1	8.8	0.0
O=C(Nc1ccc(Cl)c(Cl)c1)Nc1cc(S(=O)(=O)N2CCOCC2)ccc1N1CCCC1
    -3.7	-12.4	0.0	1984	7.0	4.0	-9.7
COc1ccc(OC)c(N=Cc2c(O)n(Cc3ccccc3)c(=S)[nH]c2=O)c1
    -7.0	7.7	-14.8	3131	7.8	-2.5	1.2
COc1cc(/C=C/C(=O)Oc2coc(CSc3ncccn3)cc2=O)cc(OC)c1OC
    3.8	-1.1	-2.5	3801	-5.1	14.0	-0.5
CC1CCCCN1C(=O)CCS(=O)(=O)c1cccc2nonc12 (stereo unspecified)
    8.4	4.8	-30.0	3289	10.8	21.0	12.6
CCn1c2ccccc2c2cc(NC(=O)CNCC3CCCO3)ccc21 (stereo unspecified)
    0.2	2.8	-27.0	5027	1.0	7.9	0.7
CC(=O)c1cccc(S(=O)(=O)NCCCN2CCOCC2)c1
    .	2.3	-4.7	4052	2.5	4.4	1.4
Cc1cc(=O)[nH]c(SCC(=O)Nc2ncc(S(=O)(=O)c3ccc([N+](=O)[O-])cc3)s2)n1
    9.6	48.5	-5.9	2456	-2.8	21.8	48.2
O=C1c2ccccc2C(=O)N1CCCCN(C(=O)c1cc2ccccc2oc1=O)c1ccc(F)cc1F
    14.2	-6.5	0.6	2700	1.1	5.2	-1.6
CC(N)=C(C#N)C(=O)CN1CCCCC1
    .	-4.6	.	.	-1.8	-3.2	3.0
O=C(CSc1nnnn1C1CCCC1)NCc1ccccc1
    2.1	6.7	-4.2	3375	10.6	1.9	1.2
O=Cc1cn(-c2ccccc2)nc1-c1cc2ccccc2oc1=O
    -1.9	3.3	-30.4	3402	7.6	0.2	7.2
CCOc1ccccc1NC(=O)CSc1nc(=O)n(CCN2CCOCC2)c2c1CCCC2
    -1.8	2.5	-20.5	?	4.6	3.8	3.6
O=C(Cn1cnc2scc(-c3ccccc3)c2c1=O)N1CCOCC1
    -8.0	-1.5	-21.2	11890	6.1	11.7	2.5
COC(=O)C1C(=O)c2c([nH]c(C(=O)OC3CCCC3C)c2C)CC1C (stereo unspecified)
    5.3	5.5	-88.4	5987	.	.	3.0
COc1ccc(N2C(=O)NC(NS(=O)(=O)c3ccc(Cl)cc3)(C(F)(F)F)C2=O)cc1 (stereo unspecified)
    12.4	12.3	-13.1	5398	10.8	6.7	-1.6
COc1ccc(/C=C/c2onc(C)c2S(=O)(=O)N2CCC(C(=O)N3CCCCCC3)CC2)cc1
    7.0	-4.8	-5.6	4297	-0.3	-9.7	-2.7
COc1ccc(S(=O)(=O)N2CCCC(C(=O)Nc3ccc(NC(=O)c4ccccn4)cc3)C2)cc1 (stereo unspecified)
    1.2	-21.9	-25.1	22087*	-5.4	2.3	-1.9
Cc1nn(-c2ccccc2)c2sc(C(=O)c3c(N)n(C)c(=O)n(C)c3=O)cc12
    4.0	-10.8	-19.9	2596	-0.7	-0.8	4.2
CN(c1ccc(C(=O)NCCSCc2ccccc2)cc1)S(=O)(=O)c1ccccc1
    -5.2	-7.4	-14.3	3778	1.3	1.3	5.6
Cc1ccc(C)c(-n2ccnc2SCC(=O)O)c1
    2.5	2.7	-6.8	3153	11.9	3.5	2.5
CCN(CC)P(=O)(c1nccn1C)N(CC)CC
    .	-1.5	-17.4	3149	5.1	4.6	7.9
COc1ccc(C(=O)Nc2ccnn2C2CCN(C(=O)C3CCOC3)CC2)cc1 (stereo unspecified)
    3.2	7.2	-26.0	4468	2.5	-1.5	0.9
Cc1ccc(C(=O)COc2ccccc2C(=O)Nc2ccccc2)cc1
    7.3	-11.3	-22.7	9623	-3.7	1.8	-4.1
C#CCOCCOCCOCCNc1nc(N2CCN(C(=O)[C@H]([C@@H](C)CC)n3cc(CCCCN)nn3)CC2)nc(N2CCN(C(=O)[C@H](C)n3cc(CCC(=O)O)nn3)CC2)n1
    -3.1	.	-1.9	3232	.	.	.
COc1ccccc1CCCNC(=O)C1CCC(=O)N(CCc2cccc(F)c2)C1 (stereo unspecified)
    -0.3	4.5	-7.1	6295	1.6	4.4	0.5
Cc1cc(OCc2nc(-c3cccnc3)no2)c(C)cc1Br
    -9.0	-1.5	-65.4	2897	5.9	5.8	7.7
CCCCn1c(N)c(N(CCOC)C(=O)C2CCN(C(=O)c3ccc(F)cc3)CC2)c(=O)[nH]c1=O
    -4.3	9.4	-9.9	4521	8.8	3.4	7.4
CCCC[C@@H](CNC)NC[C@H](NCCCCC1CCCCC1)C(C)C
    0.0	.	-2.9	3002	.	.	.
COc1ccccc1C(=O)NC(=O)CSc1nncn1C(C)C
    -1.0	4.8	-0.9	4587	2.2	-5.9	4.2
CCc1c(C(C)=O)oc2ccc3c(C)cc(=O)oc3c12
    1.7	-2.3	-10.6	6094	-4.6	-4.5	-1.5
CC(C)(C)c1ccc(OCC(O)CN2CCOCC2)cc1 (stereo unspecified)
    2.4	6.1	-12.6	.	10.0	11.4	3.2
CCOc1ccc(NS(=O)(=O)c2ccc(C(=O)N3CCCC3)cc2)cc1
    -0.3	6.5	1.8	?	0.2	-5.4	1.0
Cc1ccc(C=NNC(=S)NCCc2ccccc2)s1
    .	7.4	.	.	15.0	26.6	3.1
COc1ccc(OC)c(NC2c3ccccc3C(=O)N2Cc2ccc3c(c2)OCO3)c1 (stereo unspecified)
    2.2	-1.2	-12.3	4417	6.0	10.4	-3.6
Cc1ccc(Cl)cc1N1C(=O)CC(C)(C)CC1=O
    -11.1	-10.0	-21.9	3563	-4.9	-3.3	0.8
Oc1nc(Nc2ccc(F)cc2)sc1/C=C1\C=Nc2ccccc21
    11.1	.	-21.0	4758	.	.	.
CC(NC(=O)c1cccc(Cl)c1)C1CC2CCC1C2 (stereo unspecified)
    -8.7	-6.2	2.1	4195	.	.	0.3
COc1ccc(CCNC(=O)Cn2nnc(C(=O)Nc3cc(C)ccc3C)c2N)cc1OC
    9.4	1.6	-11.1	5463	-5.6	2.0	-2.5

# Part of the list above, with tabs.
Compound	BJeLR lethal	Sa ugtP lethal	PrP 5UTR inh	Bead autofluor	Mtb hypoxia rep	Mtb hypoxia rep growth	RN4220 kill
C#CCOCCOCCOCCNc1nc(N2CCN(C(=O)[C@H]([C@@H](C)CC)n3cc(CCCCN)nn3)CC2)nc(N2CCN(C(=O)[C@H](C)n3cc(CCC(=O)O)nn3)CC2)n1	-3.1	.	-1.9	3232	.	.	.
COc1ccccc1CCCNC(=O)C1CCC(=O)N(CCc2cccc(F)c2)C1 (stereo unspecified)	-0.3	4.5	-7.1	6295	1.6	4.4	0.5
Cc1cc(OCc2nc(-c3cccnc3)no2)c(C)cc1Br	-9.0	-1.5	-65.4	2897	5.9	5.8	7.7
CCCCn1c(N)c(N(CCOC)C(=O)C2CCN(C(=O)c3ccc(F)cc3)CC2)c(=O)[nH]c1=O	-4.3	9.4	-9.9	4521	8.8	3.4	7.4
CCCC[C@@H](CNC)NC[C@H](NCCCCC1CCCCC1)C(C)C	0.0	.	-2.9	3002	.	.	.
COc1ccccc1C(=O)NC(=O)CSc1nncn1C(C)C	-1.0	4.8	-0.9	4587	2.2	-5.9	4.2
CCc1c(C(C)=O)oc2ccc3c(C)cc(=O)oc3c12	1.7	-2.3	-10.6	6094	-4.6	-4.5	-1.5
CC(C)(C)c1ccc(OCC(O)CN2CCOCC2)cc1 (stereo unspecified)	2.4	6.1	-12.6	.	10.0	11.4	3.2
CCOc1ccc(NS(=O)(=O)c2ccc(C(=O)N3CCCC3)cc2)cc1	-0.3	6.5	1.8	?	0.2	-5.4	1.0
Cc1ccc(C=NNC(=S)NCCc2ccccc2)s1	.	7.4	.	.	15.0	26.6	3.1

# The listing continues:
# Every second line gives: BJeLR lethal	Sa ugtP lethal	PrP 5UTR inh	Bead autofluor	Mtb hypoxia rep	Mtb hypoxia rep growth	RN4220 kill
CC1(C)CC(=O)C(N=Nc2ccc3ncsc3c2)=C(O)C1
    -1.8	8.2	-29.7	3952	19.6	11.4	1.0
COc1ccccc1N1CCN(c2nc(C)cc(C)c2C#N)CC1
    20.1	-1.1	-27.8	3741	8.3	18.9	19.0
CC1CCCN(Cc2c(O)ccc3c(=O)c(-c4ccc(Cl)cc4)coc23)C1 (stereo unspecified)
    15.6	1.3	-24.4	3821	-12.2	7.5	-0.8
CC1CN(c2ncc(/C=N/NC(=O)c3ccccc3O)s2)CC(C)O1 (stereo unspecified)
    0.2	.	-17.5	3988	.	.	.
O=C(COc1ccccc1Cl)NC(=S)Nc1ccccc1N1CCCC1
    -9.7	-5.3	-15.1	5092	7.8	20.6	6.3
CC(=O)N(Cc1cc(=O)[nH]c2ccccc12)c1ccccc1
    -1.7	-0.8	-0.8	3137	.	.	1.8
O=C(Nc1ncccc1O)C1CCN(S(=O)(=O)c2ccc3ccccc3c2)CC1
    -9.0	3.2	-12.5	?	0.9	2.0	1.9
CCCNc1nc(C)nc2c1cnn2CCc1ccccc1
    2.1	-2.7	-37.7	2426	2.8	8.0	1.1
CON=C1CCn2c1c(C)c1ccccc12
    .	51.4	.	.	2.2	-5.5	3.9
CCOc1ccc(NC(=O)CN(c2ccc(OC)cc2)S(C)(=O)=O)cc1
    -2.6	5.2	-64.7	2405	.	.	3.8
CCC(C)n1c(=N)c(C#N)cc2c(=O)n3cc(C)ccc3nc21 (stereo unspecified)
    -4.6	4.2	-27.8	4536	-1.2	10.7	1.3
COc1ccc(Cl)cc1NC(=O)c1cccc(N2C(=O)C3CC=CCC3C2=O)c1 (stereo unspecified)
    0.5	8.7	-6.6	4495	-1.9	-5.1	-3.9
CCCc1nc2ccccc2c(=O)n1/N=C/c1ccc(O)cc1
    -5.7	.	-23.7	2857	.	.	.
CCc1noc(C)c1C(=O)N1CCN(S(=O)(=O)c2ccc(C(C)C)cc2)CC1
    -9.5	3.1	-5.2	.	-2.7	1.0	1.7
COc1ccccc1CC(=O)Nc1ccc(OC)c(OC)c1
    1.5	-0.3	-12.4	3234	6.0	2.4	-7.5
O=C(Nc1ccccc1C(=O)O)c1cccc(C(=O)Nc2ccccc2C(=O)O)c1
    9.9	4.0	-2.6	3059	2.4	4.0	4.5
CCOC(=O)c1cc(C)n(-c2ccc(Cl)cc2)c1C
    -9.0	6.7	-32.9	4191	6.2	8.5	3.8
CCOC(=O)/C(=C\c1ccc(OC)c(OC)c1)C(=O)c1cccnc1
    -8.1	-1.0	-13.0	3845	-5.3	1.1	-2.4
CSc1nc2c(cc1C#N)C(=O)CC(C)(C)C2
    6.0	5.7	-16.4	3900	4.9	3.4	7.0
Cc1nnc(N2C(=O)c3cccc4cccc(c34)C2=O)s1
    -4.6	-0.4	-19.8	2327	.	.	-5.1
CN(Cc1ccon1)C(=O)CC1C(=O)NCCN1Cc1cccc(F)c1F (stereo unspecified)
    -11.7	5.9	-5.3	6312	8.9	-14.6	-0.4
CC(C)CC(=O)Nc1cc2c3c(c1)CCN3C(=O)CC2
    3.2	3.3	-18.3	4562	9.7	-5.6	1.8
COc1ccc(NC(=O)COc2ccc(-c3ccccc3)cc2)cc1
    .	6.0	-1.7	3799	4.1	2.8	2.0
